# Screening data: PubChem BioAssay, several laboratories
# BJeLR lethal = BJeLR cell viability loss | 300,000 compounds, 0.17% hits | inhibition, % (no concentration beside the values) | BJeLR (HRASV12) viability, CellTiter-Glo ATP luminescence, 48 h; reference of the scale not given here;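 active = replicate mean above 50%; inconclusive = above 50% but judged a plate artefact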;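 also: 50 nL library stock added to about 25 µL; numbers are from one replicate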
# Mtb hypoxia rep = Mtb hypoxia fluorescent reporter inhibition. M. tuberculosis hypoxia-regulated fluorescent reporter, fluorescence. fluorescence inhibition, % (concentration not given with the values). 300,000 compounds, 0.1% hits;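 active = 35 to 45% if threefold the growth effect, above 45% if 1.5-fold the growth effect; inactive = the rest, general growth blockers included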;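 also: wells of about 50 µL received 100 nL stock; 0% = vehicle wells and 100% = reference inhibitor wells; whole bacteria with a GFP reporter of the hypoxia response; strong numbers were not always called active; many hits fall short of the cut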
# Autofluor counter = compound fluorescence in toxin protease inhibitor counterscreen | 360,000 compounds, 3.1% hits | fluorescence intensity (test concentration not listed) | compound autofluorescence counterscreen, microsphere flow cytometry; hits give high values;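 active = at least 3 SD above the mean of all compounds, about 16000 in these data; inconclusive = too few beads counted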;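 also: 100 nL of 1 mM stock went into each well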
# RN4220 kill = kills Staphylococcus aureus RN4220 | inhibition, % (test concentration not listed) | 330,000 compounds, 0.33% hits | S. aureus RN4220 growth, OD600, 16 h | AID 1259311;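 active = z-score of -3 or lower and OD600 up to 0.18 on both plates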;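 also: plate controls were untreated cells for no effect and reference antibiotic for full effect; stock transfer was 100 nL into about 80 µL; one replicate is shown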
# PrP UTR inh = suppresses PrP 5' UTR mRNA reporter expression; cell-based PrP 5' UTR mRNA reporter, plate reader; inhibition, % (no concentration beside the values); 340,000 compounds, 0.35% hits;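 active = every replicate at 50% or more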;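 also: 0 = median of the neutral control wells; tested in H4 reporter cells; numbers are from one replicate; inactives centre near -14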
# Sa ugtP lethal = kills S. aureus RN4220 lacking UgtP; S. aureus RN4220 ugtP deletion, OD600 growth, 16 h; some inactives read as strong as hits; growth inhibition, % (test concentration not listed); 330,000 compounds, 0.54% hits;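 active = z-score under -3 and OD600 up to 0.15 on both plates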;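 also: plate controls were untreated wells for no effect and antibiotic for full effect; wells of about 80 µL received 100 nL stock; the first replicate is given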
# Mtb hypoxia rep growth = also measured in Mtb hypoxia rep; calls as there; growth inhibition, %; measured here: M. tuberculosis growth (absorbance);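 0% = vehicle and 100% = reference antibiotic; read after six days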
# An asterisk follows results filed as active; ? = inconclusive; . = no result given; & = joins results of further samples.
SMILES,BJeLR lethal,Mtb hypoxia rep,Mtb hypoxia rep growth,Autofluor counter,RN4220 kill,PrP UTR inh,Sa ugtP lethal
CN(Cc1ccccc1)S(=O)(=O)c1ccc(NC(=O)c2ccccc2C(=O)O)cc1,-4.9,-2.0,8.3,4309,2.5,-4.7,8.8
Clc1ccc2nc3ccccn3c2c1,-2.4,13.4,19.5,3819,2.6,-14.3,6.6
COCCCNC(=O)C1CCN(c2ncccn2)CC1,.,15.1,2.3,8467,2.9,-26.5,3.0
O=c1[nH]c2ccc(Cl)cc2c(-c2ccccc2)c1N1CCN(CCO)CC1,-7.1,8.0,15.3,20528*,0.2,-0.5,-6.2
Nc1c(Cl)cc(C2=NCCn3c2c2ccccc2[n+]3[O-])cc1Cl,2.6,20.8,24.3,3643,18.5,-21.7,7.9
O=C(NCCS(=O)(=O)NCCc1ccccc1)c1ccccc1,16.0,.,.,?,.,-7.3,.
O=C(Cn1cnc2c(nnn2-c2ccccc2)c1=O)N1CCCc2ccccc21,-6.5,6.5,12.2,4560,-15.2,11.5,6.0
OC1/C(=C/c2ccc(C(F)(F)F)cc2)N2CCC1CC2 (stereo not drawn),-13.0,3.3,8.1,4524,-2.7,-32.8,-10.7
CC(Oc1ccc2c(-c3ccccc3)cc(=O)oc2c1)C(=O)NCC(O)c1ccccc1 (stereo not drawn),-8.3,.,.,5713,3.9,-21.5,0.9
CNC(=S)NCCc1cc2c(OC)ccc(OC)c2[nH]c1=O,0.4,8.1,5.3,2112,4.2,-12.9,7.3
O=C(C/C=N/OCc1ccccc1F)c1cnc(-c2ccc(Cl)cc2)s1,1.5,.,.,5023,.,-4.0,.
CCOc1ccc(Cn2c(C)nc([N+](=O)[O-])c2SCC(O)CCl)cc1[N+](=O)[O-] (stereo not drawn),0.3,6.5,10.7,6377,4.7,-20.2,-2.9
COc1ccc(C2=CC(c3c(C)nn(-c4ccccc4)c3Cl)n3nnnc3N2)cc1OC (stereo not drawn),.,.,.,2647,6.0,-18.4,4.8
N#Cc1cc2ccccc2nc1SCC(=O)NC1CC1,-17.1,-1.4,-8.8,5523,-0.2,-14.1,11.2
CSC(=S)NCc1cccnc1,-0.8,16.9,9.2,2001,2.7,-9.3,-1.0
CCn1c(/C(C#N)=C(\O)CCc2ccccc2)nc2ccccc21,10.2,.,.,6181,.,-3.4,.
CCn1c(N2CCN(CC(=O)c3c(C)n(C)c4ccccc34)CC2)nc2c1c(=O)[nH]c(=O)n2C,7.6,1.0,9.9,3140,5.4,-6.5,-1.9
CCSc1ccc(C2C3C(=O)N(CC)C(=O)C3[C@]3(C(=O)OC)CCCCN23)cc1 (stereo partly drawn),.,10.6&6.9,-2.9&11.2,.,2.4&3.6,.,0.7&12.7
CCC1CCCCN1S(=O)(=O)c1ccccc1[N+](=O)[O-] (stereo not drawn),-7.9,9.9,-6.4,2483,8.5,-12.4,1.1
CCCCCC(=O)Nc1cccc(C2=NOC3(C2)C[C@@H](C(N)=O)N(C(=O)c2cc([N+](=O)[O-])cc([N+](=O)[O-])c2)C3)c1 (stereo partly drawn),2.7,.,.,3995,.,-20.6,.
Cc1ccc(N/N=C(\C#N)C(=N)N2CCOCC2)cc1,9.0,.,.,2611,.,-66.5,.
N#CC1=C(SCc2ccccc2Cl)NC(=O)C(C(N)=O)C1 (stereo not drawn),7.2,10.1,7.0,9069,0.4,-37.5,-2.7
CCCCn1c(SCC2CCCCO2)nc2cc(S(N)(=O)=O)ccc21 (stereo not drawn),-2.9,-0.4,5.1,4114,0.4,-9.6,3.5
Cc1c(OCC(=O)N(C)c2ccccc2)ccc2c3c(c(=O)oc12)CCC3,5.2,-2.4,4.1,3769,5.9,-10.1,8.1
Cc1cc(Sc2nnc(N)s2)c2ccccc2n1,9.5,18.8,15.9,.,5.7,7.9,1.5

# Reformatted as tab-separated lines: part of the list above
SMILES	BJeLR lethal	Mtb hypoxia rep	Mtb hypoxia rep growth	Autofluor counter	RN4220 kill	PrP UTR inh	Sa ugtP lethal
CCSc1ccc(C2C3C(=O)N(CC)C(=O)C3[C@]3(C(=O)OC)CCCCN23)cc1 (stereo partly drawn)	.	10.6&6.9	-2.9&11.2	.	2.4&3.6	.	0.7&12.7
Cc1c(OCC(=O)N(C)c2ccccc2)ccc2c3c(c(=O)oc12)CCC3	5.2	-2.4	4.1	3769	5.9	-10.1	8.1

# Taken from above:
# RN4220 kill, CCC1CCCCN1S(=O)(=O)c1ccccc1[N+](=O)[O-] (stereo not drawn) → 8.5
# Autofluor counter, O=C(C/C=N/OCc1ccccc1F)c1cnc(-c2ccc(Cl)cc2)s1 → 5023

# (continued)
SMILES,BJeLR lethal,Mtb hypoxia rep,Mtb hypoxia rep growth,Autofluor counter,RN4220 kill,PrP UTR inh,Sa ugtP lethal
Cc1ccc(OC(=O)c2cncc(Br)c2)c(C)c1,-5.3,4.3,-0.5,4309,5.8,-18.1,9.6
CCCCS(=O)(=O)N1CCCC(C(=O)NCCc2ccccc2)C1 (stereo not drawn),0.6,4.1,1.5,3097,0.9,-15.3,2.5
Cc1c(NC(=O)CSc2ccc3c(c2)OCCO3)c(=O)n(-c2ccccc2)n1C,-1.4,2.4,4.0,4160,3.3,-17.6,0.5
CCOC(=O)C1CCN(S(=O)(=O)c2cc(F)ccc2OC)CC1,-8.7,1.1,-0.3,4718,1.7,-23.2,1.2
CC(CC(=O)Nc1ccc(Cl)cc1Cl)=NNC(=O)c1ccco1,.,-3.8,-5.3,.,13.3,.,6.4
CSCCC(NC(=O)c1ccccc1)C(=O)Nc1ccc(C)cc1 (stereo not drawn),3.9,-1.5,11.9,2599,0.4,23.0,1.4
CCOC(=O)C=c1sc(=Cc2ccc(C(F)(F)F)cc2)c(=O)n1CC(=O)NCc1ccco1,.,17.6,0.9,.,-0.4,.,11.0
COc1cc(NC(=S)NN2CCN(C)CC2)cc(OC)c1OC,-21.9,3.2,2.5,2377,5.5,-16.0,3.7
NC(=O)[C@@H]1CCCN1C(=O)c1ccc2nc(Cc3cccc(Cl)c3)oc2c1,2.6,5.6,2.9,5934,-1.0,-14.3,3.5
Cc1ccc(-n2nc(C)c(C3C(C#N)=C(N)Oc4c3c(=O)oc3ccccc43)c2Cl)cc1 (stereo not drawn),2.6,.,.,.,-14.0,.,4.0
CCOC(=O)CC1(NC(=O)C2CCC(=O)N(Cc3ccccc3OC)C2)CCCCC1 (stereo not drawn),-5.5,-3.9,13.1,5979,0.7,0.7,1.2
COc1cccc(/C=C/C(=O)Nc2ccc3c(c2)OCCO3)c1OC,5.3,2.0,9.4,4278,6.8,11.5,1.1
O=C(CCCn1cnc([N+](=O)[O-])n1)Nc1cccc(Cl)c1Cl,-7.2,-9.7,2.4,7096,-7.7,-8.8,22.3
c1csc(C(c2nnnn2C2CCCCC2)N2CCCC3(CCCCC3)C2)c1 (stereo not drawn),-3.6,10.8,13.2,3385,10.1,-34.2,-23.9
COc1ccc(N2C(=O)CC(c3cc(OC)c(OC)c(OC)c3)CC2=O)cc1,13.1,2.8,6.5,3697,-0.6,-32.5,4.6
Cc1nc2nc(-c3ccccc3)[nH]n2c(=O)c1C,2.1,8.3,-0.1,8139,3.2,.,8.0
Nc1nc(SCC(=O)Nc2ccccc2Sc2ccccc2)n[nH]1,1.0,6.8,-0.2,11446,3.2,-12.0,11.2
CCOC(=O)C1=C(CSc2nc(CC)c(C)cc2C#N)OC(N)=C(C#N)C1c1ccccc1 (stereo not drawn),4.3,.,.,2260,4.5,-23.9,6.0
Cc1cc(C)c(NC(=O)CSc2nnc(-c3ccco3)n2N)c(C)c1,3.1,11.5,12.3,?,4.8,-17.2,6.1
O=C(COC(=O)/C=C/c1ccc(F)cc1)NCC1CCCO1 (stereo not drawn),.,7.7,3.4,3562,2.5,-14.2,1.3
Cn1c(SCc2ccccc2)nc2c1c(=O)[nH]c(=O)n2C,4.4,-14.4,-3.5,3705,4.0,5.3,8.0
COc1cc(NC(=O)CSc2nnc3ccccn23)cc(OC)c1,.,8.1,-6.3,.,0.4,-50.0,-1.2
CCOC(=O)c1ccc(NC(=O)c2ccc3c(c2)C(=O)N(CC2CCCO2)C3=O)cc1 (stereo not drawn),4.2,1.9,6.4,5679,-2.0,-19.9,-1.7
COc1ccccc1N1CCN(S(=O)(=O)c2ccc(-c3ccc(=O)[nH]n3)o2)CC1,1.7,-0.8,1.5,5788,0.7,-16.7,-0.7
COc1ccc(OC)c(S(=O)(=O)Nc2cccc3ccc(O)cc23)c1,-0.2,14.5,-3.0,7079,5.7,-31.9,-7.1

# Gathered by group: the entries above with a CF3 group (2)
SMILES,BJeLR lethal,Mtb hypoxia rep,Mtb hypoxia rep growth,Autofluor counter,RN4220 kill,PrP UTR inh,Sa ugtP lethal
OC1/C(=C/c2ccc(C(F)(F)F)cc2)N2CCC1CC2 (stereo not drawn),-13.0,3.3,8.1,4524,-2.7,-32.8,-10.7
CCOC(=O)C=c1sc(=Cc2ccc(C(F)(F)F)cc2)c(=O)n1CC(=O)NCc1ccco1,.,17.6,0.9,.,-0.4,.,11.0

# The listing continues:
SMILES,BJeLR lethal,Mtb hypoxia rep,Mtb hypoxia rep growth,Autofluor counter,RN4220 kill,PrP UTR inh,Sa ugtP lethal
Cc1cc(C)cc(Oc2c(C(F)(F)F)oc3cc(OCC(=O)O)ccc3c2=O)c1,-3.5,1.3,-16.3,2655,5.0,-9.6,4.9
COCCCn1c(C(=O)N2CCOCC2)cc2c(=O)n3ccccc3nc21,6.4,6.3,-2.4,4754,1.4,-2.5,5.4
O=C(c1ccco1)N1CCN(S(=O)(=O)c2ccc(S(=O)(=O)NC3CC3)cc2)CC1,2.5,3.2,6.7,12668,1.1,-19.9,-4.3
COc1cc(C(=O)COC(=O)C2CCN(c3ccc(C(F)(F)F)cn3)CC2)ccc1OC(F)F,3.6,3.4,5.4,4564,5.3,-13.7,-1.1
CC(=O)c1ccc(NC(=O)CC2S/C(=N/N=C3CCCCCC3)NC2=O)cc1 (stereo not drawn),3.2,4.3,6.9,6159,6.0,-7.6,-0.1
COc1ccc(C2=C/C(=C\c3cccc(OC(C)=O)c3)C(=O)O2)cc1,4.3,15.4,7.4,2553,5.0,-4.5,-0.4
CCCCCC1CC(CC(=O)Nc2ccc([N+](=O)[O-])cc2)OC1=O (stereo not drawn),8.4,3.2,4.5,?,3.1,-3.4,-3.4

# 5 compounds picked at random from the list so far, as already listed:
SMILES,BJeLR lethal,Mtb hypoxia rep,Mtb hypoxia rep growth,Autofluor counter,RN4220 kill,PrP UTR inh,Sa ugtP lethal
NC(=O)[C@@H]1CCCN1C(=O)c1ccc2nc(Cc3cccc(Cl)c3)oc2c1,2.6,5.6,2.9,5934,-1.0,-14.3,3.5
O=C(C/C=N/OCc1ccccc1F)c1cnc(-c2ccc(Cl)cc2)s1,1.5,.,.,5023,.,-4.0,.
CCC1CCCCN1S(=O)(=O)c1ccccc1[N+](=O)[O-] (stereo not drawn),-7.9,9.9,-6.4,2483,8.5,-12.4,1.1
CN(Cc1ccccc1)S(=O)(=O)c1ccc(NC(=O)c2ccccc2C(=O)O)cc1,-4.9,-2.0,8.3,4309,2.5,-4.7,8.8
Cc1c(NC(=O)CSc2ccc3c(c2)OCCO3)c(=O)n(-c2ccccc2)n1C,-1.4,2.4,4.0,4160,3.3,-17.6,0.5
